RanGTP-Impb inh: inhibitors of RanGTP-importin-beta interaction, primary screen, biochemical, FRET, CFP-Ran, YFP-importin-beta, homogeneous | cell-free CFP-Ran/YFP-importin-beta FRET ratio | inhibition, % (no concentration beside the values) | hit rate 1.1% among 300,000 | AID 2216;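 active means most replicates above 15%; inconclusive means exactly half above 15%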;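 further: 0% = DMSO wells and 100% = Ran loaded with GDP instead of GTP; wells of about 40 µL received 100 nL stock; the first replicate is given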
A1 inh: inhibitors of the anti-apoptotic protein A1, read as caspase activation. MEF A1-2A-BIM cells, Caspase-Glo 3/7 luminescence, 3 h; percent of clofoctol response, vehicle zero. caspase activation, % (test concentration not listed). hit rate 0.066% among 330,000. AID 2462;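 active means over half of replicate activation scores above 10%, or exactly half above 10 with the replicate mean above 10; inconclusive means replicate mean below 10 yet half the replicates above 10; inactive means over half of replicates below 10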;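 further: wells of about 30 µL received 50 nL stock; many hits fall short of the cut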
T cruzi repl: blocks replication of Trypanosoma cruzi. AID 1885. hit rate 1.4% among 300,000. T. cruzi beta-gal in NIH3T3, luminescence, 90 h. inhibition, % (no concentration beside the values);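 active means mean inhibition across valid replicates above about 55%, limit read from the data; inconclusive means mean below that limit but half or more replicates reach it; inactive means mean below it, under half of replicates reach it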;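 further: signal also drops with host cell toxicity which is not excluded here; 0% = plate median of DMSO wells and 100% = zero luminescence signal; higher percent means less beta-gal luminescence so fewer parasites; stock transfer was 50 nL into about 50 µL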
AF4-AF9 inh: blocks AF4 peptide binding to human AF9. AlphaScreen, biotin-AF4 peptide binding to FLAG-AF9. inhibition, % at 10 µM. hit rate 0.47% among 350,000. AID 651704;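 active means every replicate reaching a set inhibition limit, whatever the replicate mean, cut at about 25% in these data; inconclusive means mean inhibition reaches that limit but some replicates miss it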;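 further: 0% = plate neutral control median and 100% = total signal loss; the record names both 10 and 1 µM as test concentration; the first replicate is given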
Target sequence (P42568 whole entry, looked up): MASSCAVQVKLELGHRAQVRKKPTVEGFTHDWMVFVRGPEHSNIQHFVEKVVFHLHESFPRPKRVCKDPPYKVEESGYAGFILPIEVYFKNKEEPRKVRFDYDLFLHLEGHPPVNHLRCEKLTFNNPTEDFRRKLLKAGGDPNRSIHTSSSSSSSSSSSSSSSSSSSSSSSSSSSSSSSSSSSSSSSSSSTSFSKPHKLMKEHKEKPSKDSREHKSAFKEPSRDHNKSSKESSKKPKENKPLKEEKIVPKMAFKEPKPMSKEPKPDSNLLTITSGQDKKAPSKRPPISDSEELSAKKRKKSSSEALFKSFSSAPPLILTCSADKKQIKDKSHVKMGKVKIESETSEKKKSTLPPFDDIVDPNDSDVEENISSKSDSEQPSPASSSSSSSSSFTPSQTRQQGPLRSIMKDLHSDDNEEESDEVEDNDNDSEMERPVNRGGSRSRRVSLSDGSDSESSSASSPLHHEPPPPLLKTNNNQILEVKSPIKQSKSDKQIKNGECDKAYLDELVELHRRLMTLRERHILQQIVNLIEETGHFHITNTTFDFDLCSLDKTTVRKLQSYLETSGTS
Calb FLC: affects C. albicans growth with fluconazole. C. albicans CaCi-2 (fluconazole-resistant clinical isolate) + fluconazole, Alamar Blue growth, 48 h. growth inhibition, % (concentration not given with the values). hit rate 0.57% among 300,000;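 active means most replicates above 75%; inconclusive means exactly half above 75%; inactive means most below 75%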;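 further: all wells also contain fluconazole at 8 µg/ml as a sub-toxic cotreatment; 0% = median of DMSO wells and 100% = median of geldanamycin control wells; wells of about 8 µL received 7.5 nL stock; the first replicate is given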
Beta apoptosis: blocks beta cell apoptosis. INS-1E cytokine-induced death, ATP luminescence, 48 h; percent of positive-control rescue, neutral wells zero. protection from apoptosis, % (test concentration not listed). hit rate 0.8% among 300,000. AID 435005;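 active means all replicates at 75% or more, or half of them and the mean; inconclusive means half reach 75% but not the mean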;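 further: 0% = cytokine-treated negative control wells and 100% = positive control rescue; higher means more ATP so stronger rescue from cytokine killing; wells of about 40 µL received 100 nL stock; the first replicate is given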
rRNA inh HTS: inhibitors of bacterial rRNA selective over humanized ribosomes | E. coli WT GFP vs humanized-ribosome RFP mutants, fluorescence, 24 h; hits give low values; DMSO median 0, no signal -100 | hit rate 1.6% among 350,000 | GFP signal change (wild-type ribosome), % (test concentration not listed);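 active means significant combined selectivity score with lowered wild-type GFP, culture density cut under 30%, mutant RFP and density less affected; inactive means any of these conditions unmet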; further: one replicate is shown; some compounds called inactive have numbers as strong as hits
Vif TR-FRET: HIV-1 Vif–A3G interaction blockers – biochemical, TR-FRET, GST-Vif 1-94, biotin-A3G peptide, dose response retest, primary screen (AID 1117319); TR-FRET GST-Vif / biotin-A3G peptide binding; higher % means a stronger effect; test concentration not given here; strong numbers were not always called active; inhibition, %; hits with a dose series show IC50 in µM; hit rate 0.57% among 260,000;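 active means above the screen mean plus three standard deviations and confirmed in dose response; inconclusive means results disagree or hit not tested in dose response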;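 further: Vif residues 1-94 fused to GST binding biotinylated APOBEC3G peptide 110-148; 0% = full assay without inhibitor and 100% = GST in place of GST-Vif; retest series ran down from 100 µM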
rRNA inh HTS OD600: further read-out of rRNA inh HTS, marked with its call; OD600 change, %; measured here: OD600 growth;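 optical density of the mix in the first replicate; 0 = DMSO median and -100 = no signal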
rRNA inh HTS RFP: also measured in rRNA inh HTS; calls as there; RFP signal change, %; measured here: RFP humanized mutant strains;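 first replicate; 0 = DMSO median and -100 = no signal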
* = called active by the depositor; ? = inconclusive; · = not tested or not shown. Some of the compounds tested. The share of hits here may be higher or lower than overall.

SMILES	RanGTP-Impb inh	A1 inh	T cruzi repl	AF4-AF9 inh	Calb FLC	Beta apoptosis	rRNA inh HTS	rRNA inh HTS OD600	rRNA inh HTS RFP	Vif TR-FRET
O=C(O)CC1c2ccccc2CCN1S(=O)(=O)c1ccccc1 (stereo unspecified)	3.4	-0.7	3	-2.0	3	-5	-5	-4	-0.9	·
COCCNC(=O)C(c1ccccc1C)N(C(=O)Cn1nnc2ccccc21)c1cccnc1 (stereo unspecified)	-1.7	1.8	8	·	4	-1	·	·	·	-4%
CC1C(=O)Nc2ccc(S(=O)(=O)N3CCN(c4cccc(Cl)c4)CC3)cc2NC1=O (stereo unspecified)	-0.1	0.0	3	3.7	-4	9	9	-5	-2.5	·
CCN(CC)c1ccc(-c2nn3c(-c4n[nH]c5c4CCC5)nnc3s2)cc1	6.8	1.1	40	·	-11	42	·	·	·	-4%
COC(=O)Oc1ccc(/C=C/C(=O)OC(C)C)cc1OC(=O)OC	2.8	-1.0	-1	·	-12	29	·	·	·	·
O=C(CCl)NN1C(=O)NC2(CCCCC2)C1=O	4.6	-0.4	-9	0.4	4	1	10	-5	5.3	-8%
c1ccc(-n2nnnc2N2CCOCC2)cc1	·	-0.6	·	·	6	-2	·	·	·	27%
CCCCCCn1c(CN2CCCC(C)C2)nc2c1c(=O)n(C)c(=O)n2C (stereo unspecified)	-1.2	0.5	18	·	-10	-2	·	·	·	11%
Cc1cc(Cl)c(OCCCn2ccnc2)c(Br)c1	-1.0	0.2	45	13	22	-3	-51	-50	-15	-1%
CCCNC1=CC(=O)CC(C)(C)C1	6.8	-0.2	8	4.4	·	3	-4	0	3.3	1%
CC1CN(CCS(=O)(=O)c2cc(Cl)ccc2Cl)CC(C)O1 (stereo unspecified)	?	-0.5	-2	-4.0	-2	-5	7	4	-0.3	5%
NC(=O)Oc1cccc(OC(N)=O)c1	3.6	1.7	7	0.7	-5	-5	6	16	0.1	0%
CC(=O)Nc1ccc(S(=O)(=O)N2CCNC(=O)CC2)cc1	-4.5	0.7	-3	·	-9	3	·	·	·	6%
Cc1ccccc1C(=O)Nc1ccc(S(=O)(=O)N2CC(C)OC(C)C2)cc1 (stereo unspecified)	3.1	0.8	-6	0.0	2	-4	3	1	1.4	·
CN(C)C(=O)c1cc(C(=O)c2c(F)cccc2F)c[nH]1	2.6	0.3	-19	-2.0	20	·	9	10	-2.9	2%
CN(CC(=O)NC1CC1)S(=O)(=O)c1ccc(F)cc1	3.2	0.4	·	-2.6	-3	-1	9	11	-11	6%
CCOc1ccccc1N1CCN(C(=O)CCCc2nc3ccccc3s2)CC1	4.4	0.3	-7	2.2	-4	-1	-30*	-11*	-4.3*	·
CN(Cc1ccccc1)C(=O)c1ccc([N+](=O)[O-])o1	-1.1	-1.4	53	-2.4	1	-10	7	11	1.6	-4%
CCCc1cc(=O)[nH]c(SCC(=O)c2cc(C)n(C)c2C)n1	-3.7	-0.3	-7	·	18	-7	·	·	·	7%
CCOC(=O)/C=C/c1ccc(C(F)(F)F)cc1S(=O)(=O)NC(C)(C)C	-2.9	-0.5	-3	4.2	-6	12	-9	-8	-3.4	·
CCOc1cc(/C=N\Nc2ncc(F)c(N3CCOCC3)n2)ccc1Oc1nc(Cl)ncc1F	0.3	0.5	21	5.5	3	2	7	6	0.8	4%
COc1ccccc1CNC(=O)CCNC(=O)Cn1cnc2ccccc2c1=O	-0.2	-0.7	-25	·	-5	-8	·	·	·	0%
COc1ccccc1CCNC(=O)CCn1nc(C)c2c(C)n(-c3ccccc3)nc2c1=O	1.5	0.3	11	1.0	-27	-1	-3	-5	-2.4	·
O=C(NC(=S)NCc1ccccc1)c1cccc([N+](=O)[O-])c1	0.1	0.7	-10	3.9	-2	·	-19	-18	-2.8	·
O=S(=O)(Oc1ccccc1)c1cccnc1	0.8	1.1	·	2.9	-6	2	8	1	-2.1	·

Arranged by number of heavy atoms (highest first): some entries from above
SMILES	RanGTP-Impb inh	A1 inh	T cruzi repl	AF4-AF9 inh	Calb FLC	Beta apoptosis	rRNA inh HTS	rRNA inh HTS OD600	rRNA inh HTS RFP	Vif TR-FRET
CCOC(=O)/C=C/c1ccc(C(F)(F)F)cc1S(=O)(=O)NC(C)(C)C	-2.9	-0.5	-3	4.2	-6	12	-9	-8	-3.4	·
CCCc1cc(=O)[nH]c(SCC(=O)c2cc(C)n(C)c2C)n1	-3.7	-0.3	-7	·	18	-7	·	·	·	7%
CN(Cc1ccccc1)C(=O)c1ccc([N+](=O)[O-])o1	-1.1	-1.4	53	-2.4	1	-10	7	11	1.6	-4%
CCCNC1=CC(=O)CC(C)(C)C1	6.8	-0.2	8	4.4	·	3	-4	0	3.3	1%

The list continues.
SMILES	RanGTP-Impb inh	A1 inh	T cruzi repl	AF4-AF9 inh	Calb FLC	Beta apoptosis	rRNA inh HTS	rRNA inh HTS OD600	rRNA inh HTS RFP	Vif TR-FRET
COc1cccc(OC)c1C(=O)Nc1cccc(NC(=O)c2cccs2)c1	1.9	1.5	17	1.8	-5	-1	0	-4	-3.0	·
Cc1ccc(NC(=O)c2ccccc2OCc2c(C)noc2C)cc1S(=O)(=O)N(C)C	·	1.1	·	-5.9	·	5	·	·	·	-3%
C=CCn1c(SCC(=O)NC2CCS(=O)(=O)C2)nc2sc(CC)cc2c1=O (stereo unspecified)	3.7	0.5	3	·	6	0	·	·	·	-7%
COc1cc(/C=N/n2c(C)nnc2C)cc(OC)c1OC	0.8	-0.1	-9	·	4	-3	·	·	·	7%
CS(=O)(=O)Nc1ccccc1C(=O)Nc1cccc(Cl)c1	0.0	0.7	-3	9.5	66	31	-46	-42	-15	15%
NC(=O)c1ccccc1NC(=O)CC12CC3CC(CC(C3)C1)C2	-5.5	0.9	-2	-1.4	6	·	-3	-7	-1.5	·
COc1ccc(C2C(C)C3(O)CC(C#N)(C(=O)N3)C2(C#N)C#N)cc1 (stereo unspecified)	-1.3	0.9	-3	0.0	40	-6	2	5	-0.8	-10%
CN(C)CCCN(C(=O)c1ccc(Cl)s1)c1nc2cc3c(cc2s1)OCO3	1.1	1.6	?	10	-18	3	-12	-8	0.0	·
CC(=O)N(c1ccc(Cl)cc1)c1c[nH]c2ccccc12	26*	1.4	3	·	23	·	·	·	·	13%
O=C1c2cnc3nc(SCc4ccc(Cl)cc4)nn3c2CC2c3ccccc3CCN12 (stereo unspecified)	3.0	0.2	33	·	8	1	·	·	·	8%
Cc1c(NC(=O)c2c(NC(=O)CNC3CC3)sc3c2CCCC3)c(=O)n(-c2ccccc2)n1C	1.0	-0.3	2	·	7	-10	·	·	·	·
Cc1cnc(C(=O)N2CCN(c3ccc(C(F)(F)F)cn3)CC2)cn1	-2.3	-0.3	8	-3.0	-13	-4	9	-6	2.4	·
CSCCC(NC(=O)c1ccc(Cl)cc1)C(=O)O (stereo unspecified)	-0.6	-0.5	-1	-0.6	-4	-7	13	8	0.9	-5%
Cc1ccnc(NC(=O)/C=C/c2ccccc2Cl)c1	-2.2	-6.0	-12	-0.5	30	-7	1	4	-1.6	-3%
CCOCCn1c(CN2CCN(c3ccc(OC)cc3)CC2)nc2c1c(=O)n(C)c(=O)n2C	-0.1	-0.2	6	·	6	·	·	·	·	·
O=C(COC(=O)c1ccccc1C(=O)c1ccccc1)Nc1ccc(SC(F)F)cc1	4.2	-0.6	-8	·	-17	-9	·	·	·	-5%
Cc1ccc(-n2ncc3c(=O)[nH]c(SCC(=O)N4CCCCC4)nc32)cc1	2.6	1.3	12	-4.0	3	10	3	-2	6.5	-7%
COc1cc2c(cc1OC)C(c1cc(OC)c(OC)c(OC)c1)NCC2 (stereo unspecified)	3.7	-0.4	-1	0.0	-21	-1	·	·	·	9%
CC(C)Oc1ccc(S(=O)(=O)N2CCOCC2)cc1NC(=O)C(C)Oc1ccc(F)cc1 (stereo unspecified)	0.3	-0.9	12	-2.8	-5	0	-5	-18	0.4	·
O=C(CN(C(=O)CCC(=O)Nc1nccs1)c1ccc(F)c(Cl)c1)NCC1CCCO1 (stereo unspecified)	2.7	1.6	-3	1.6	12	3	3	11	-0.5	2%
Cc1ccccc1C(=O)NC1CCN(C(=O)NC2CCCCC2)CC1	0.8	0.3	-14	-1.6	0	-4	5	17	-0.7	·
CN(Cc1ccccc1)C(=O)c1ccccc1NC(=O)c1ccccc1	-0.9	·	-4	8.8	18	·	-14	-13	-8.8	-6%
Cc1cccnc1Nc1nc(-c2ccccc2)cs1	2.7	-7.5	26	1.5	-45	·	-46	-63	-4.2	·
CC(C)c1ccc(S(=O)(=O)Nc2ccc3c(c2)OCO3)cc1	·	-0.3	·	4.4	·	8	-56	-79	-17	·
Cc1ccc(N2CCN(C3=NC(=O)/C(=C\c4cccs4)S3)CC2)cc1	7.9	-0.4	-1	·	-2	-6	·	·	·	7%
Cc1oc2c(c(C)cc3oc(=O)c(CC(=O)N[C@@H](CCCNC(N)=O)C(=O)O)c(C)c32)c1C	-0.8	1.5	-12	-2.2	1	-3	0	8	1.1	2%
O=C1C2C3c4ccccc4C(c4ccccc43)[C@@H]2c2nc3ccccc3n21 (stereo partly specified)	-0.3	-0.6	-1	·	6	-5	·	·	·	-2%

Ordered by the number under rRNA inh HTS (highest first): some entries from above
structure	RanGTP-Impb inh	AF4-AF9 inh	rRNA inh HTS	rRNA inh HTS OD600	rRNA inh HTS RFP	Vif TR-FRET
NC(=O)c1ccccc1NC(=O)CC12CC3CC(CC(C3)C1)C2	-5.5	-1.4	-3	-7	-1.5	·
CC(C)Oc1ccc(S(=O)(=O)N2CCOCC2)cc1NC(=O)C(C)Oc1ccc(F)cc1 (stereo unspecified)	0.3	-2.8	-5	-18	0.4	·
Cc1cccnc1Nc1nc(-c2ccccc2)cs1	2.7	1.5	-46	-63	-4.2	·
